Source: PubChem BioAssay
Sfp PPTase inh: qHTS Assay for Inhibitors of Bacillus subtilis Sfp phosphopantetheinyl transferase (PPTase). AID 1490, 2009. Potency, µM, inactives show max response, negative = inhibition, hits mostly inhibitors. 4'-phosphopantetheinyl transferase ffp (Bacillus subtilis), Q9F4F7. 3.5% of 310,000 active. Biochemical Sfp PPTase activity, qHTS; active = well fitted inhibition curve with a large enough effect; inconclusive = small, poorly fitted or top-dose-only effect, or another doubt; inactive = no such curve, though single readings can be large or run the other way;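 note: the enzyme is Sfp with the accession as filed and its product quenches rhodamine fluorescence; potency is the fitted concentration of half-maximal effect; 0% = enzyme reaction without inhibitor and -100% = no enzyme wells; top concentration of the series not given in the record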
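Fluorescence-quenching assay: 15 nM Sfp-PPTase preincubated 15 min at room temperature with compound, then 5 uM rhodamine-CoA and 12.5 uM BHQ-2-labelled YbbR peptide added. Fluorescence (ex 525/em 598 nm) read at start and after 30 min; difference gives rate.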
Menin MLL FP FL: qHTS Assay for Inhibitors Targeting the Menin-MLL Interaction in MLL Related Leukemias: Competition With Fluorescein Labeled MLL-derived Peptide | Fluorescence polarization, fluorescein-MLL peptide displacement from menin | FP activity change, % at 61.4 µM | 290,000 tested, under 10 active; inconclusive = falling polarisation curve, or a change in total fluorescence; inactive = total fluorescence flat and polarisation flat or rising; no compound was filed as active; the % refers to the polarisation; negative = inhibition;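 note: % of control where 0% means no effect; inhibitors lower the polarisation; unlabelled MLL peptide was the positive control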
TRPV1 PAM: HTS Assay for Compounds that Act as Potentiators of the Vanilloid Receptor 1; TRPV1-expressing cells, Fluo-8 calcium influx, capsaicin EC20 potentiation; host cell line not named in the record; control for the full effect not named in the record; potentiation, % at 8.33 µM; 0.02% of 320,000 active; active means potentiation above 80%; inconclusive means 30% to 80%; inactive means below 30%; note: 0% is about no effect
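TRPV1-expressing cells were cultured overnight at 35.5C and loaded with Fluo-8 calcium dye for 40 to 90 min at room temperature. After a 10 s baseline, compound was added and calcium influx was read kinetically for 3 min (ex 480/em 520 nm).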
TRPML1 blocker: qHTS for Inhibitors of the Human Mucolipin Transient Receptor Potential 1 (TRPML1); Mucolipin-1 (Homo sapiens), Q9GZU1; TRPML1-inducible cells, Ca2+ dye fluorescence, FDSS; hits give low values; inhibition of EC80 agonist-evoked calcium signal; activity change, negative = inhibition, % (test concentration not listed); 0.02% of 390,000 active; in the data active means activity change below about -50%; inconclusive means about -30% to -50%; inactive means above about -30%;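 note: stimulus is agonist 54-4 at its EC80 concentration; % is set by controls: 0 for no effect and ±100 for the full control effect; compound concentration not given in the record; the text of the record puts the active cut at -80%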
Target sequence (Q9GZU1 whole entry, looked up): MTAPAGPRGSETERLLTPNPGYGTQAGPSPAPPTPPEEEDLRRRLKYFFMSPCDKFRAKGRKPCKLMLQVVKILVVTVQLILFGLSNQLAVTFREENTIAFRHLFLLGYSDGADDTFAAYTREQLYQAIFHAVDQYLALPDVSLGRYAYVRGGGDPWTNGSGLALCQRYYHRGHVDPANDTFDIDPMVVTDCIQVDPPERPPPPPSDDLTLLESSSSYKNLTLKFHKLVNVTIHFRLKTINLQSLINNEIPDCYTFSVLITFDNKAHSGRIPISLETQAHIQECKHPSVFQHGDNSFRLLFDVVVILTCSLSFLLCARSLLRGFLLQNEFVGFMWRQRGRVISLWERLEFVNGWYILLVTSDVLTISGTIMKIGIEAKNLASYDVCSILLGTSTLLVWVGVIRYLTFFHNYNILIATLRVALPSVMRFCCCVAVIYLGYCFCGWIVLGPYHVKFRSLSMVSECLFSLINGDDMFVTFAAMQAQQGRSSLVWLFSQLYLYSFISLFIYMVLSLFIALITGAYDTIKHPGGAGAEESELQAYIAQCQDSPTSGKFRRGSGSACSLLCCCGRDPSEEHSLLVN
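Calcium fluorescence in TRPML1-DL cells induced overnight with Tet: a 110 s read after compound pin addition, then a 110 s antagonist read after challenge with 54-4 at 4 uM final (EC80).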
PINK1 modulator: A Quantitative High throughput Screen to Identify Chemical Modulators of PINK1 Expression; Potency, µM (titrated, usually from 76.6 µM), for inactives: at the highest dose activation (PINK1 increase), hits mostly activators; 0.2% of 410,000 active; PINK1 immunofluorescence, high-content cytometry, 24 h; active = well fitted activation curve with a large enough effect; inconclusive = small, poorly fitted or top-dose-only effect; inactive = flat fitted curve, though single readings scatter; cell line not stated here;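 note: potency is the fitted concentration of half-maximal effect; % of control where 0% means no effect; nearly all actives have a fitted effect of over 65% in size; a mitochondrial uncoupler was the plate control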
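Decision-based qHTS: stable cells, 24 h exposure to five compound concentrations, CCCP as control. Fixed cells stained for PINK1 plus nuclear, mitochondrial and cell markers, cytometer read.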
TRPML1 agonist: qHTS for Agonists of the Human Mucolipin Transient Receptor Potential 1 (TRPML1); TRPML1-expressing cells, Ca2+ dye fluorescence, FDSS; host cell line not named in the record; reference of the full effect not given here; activation, % (concentration not given with the values); 0.12% of 410,000 active; in the data active = activation above about 50%; inconclusive = about 30% to 50%; inactive = below about 30%; note: 0% is about no effect; the text of the record puts the active cut at 80%
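Calcium fluorescence on an FDSS kinetic reader gave the read-out. Tet-induced TRPML1-DL cells were plated overnight, dye-loaded (Ca8 with quencher, 45-90 min, room temperature, dark), then read 110 s after compound addition, and again 110 s after 4uM final 54-4 (EC80).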
ClpP mod: qHTS Assay for Activators of ClpP. purified B. subtilis ClpP, FRET peptide cleavage, 20 min. ATP-dependent Clp protease proteolytic subunit (Bacillus subtilis (strain 168)), P80244. Potency, µM (titrated, usually from 57.5 µM), inactives show at the highest dose activity change, negative = active. 1.9% of 340,000 active; active = well fitted falling curve with a large enough effect; inconclusive = small, poorly fitted or top-dose-only effect; inactive = no such curve, though single readings can be large or run the other way; note: potency is the fitted concentration of half-maximal effect; the source files actives as falling curves though it sought activators and does not explain the sign; nearly all actives have a fitted effect of over 65% in size; many hits overshoot -100%
Target sequence (P80244 whole entry, looked up): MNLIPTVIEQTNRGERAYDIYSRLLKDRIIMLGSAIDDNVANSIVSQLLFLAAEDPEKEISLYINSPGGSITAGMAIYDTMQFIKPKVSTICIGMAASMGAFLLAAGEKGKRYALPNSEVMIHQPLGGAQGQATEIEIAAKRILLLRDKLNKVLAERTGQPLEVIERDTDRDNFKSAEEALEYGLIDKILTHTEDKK
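Purified B. subtilis ClpP, 10 microg/mL final in Tris/HCl pH8 with KCl, BSA, glycerol and Tween-20, cleaved an Abz/nitrotyrosine-quenched decapeptide. Fluorescence (ex 320, em 430) was read at 0 and 20 min at room temperature. Delta was normalized to 5.8 microM ADEP and DMSO/no-enzyme controls.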
The depositor's hits bear a star; ? = inconclusive; · = not tested or not shown; & = joins results of further samples; [ ] = remark or other dose.

Each structure is followed by: TRPV1 PAM	PINK1 modulator	Menin MLL FP FL	TRPML1 agonist	TRPML1 blocker	Sfp PPTase inh	ClpP mod
O=C(Cc1c(Cl)cccc1Cl)NC1CC1
 : 6	2.2%	1.7	1.3	4	11%	·
O=C(Cn1nc(-c2ccccc2)ccc1=O)NCc1ccc(F)cc1Cl
 : ·	-1.6%	·	1.6	19	·	-14%
CCN(c1ccccc1)S(=O)(=O)c1ccc2[nH]cc(C(=O)N3CCOCC3)c(=O)c2c1
 : -4	-0.7%	0.8	-0.1	1	13%	32µM*
Cc1cccc(N2CCN(C(=O)c3cccc(N4C(=O)C5C6C=CC(C6)C5C4=O)c3)CC2C)c1 (stereo not drawn)
 : 11	4.4%	-0.1	-0.1	-3	5%	-0.9%
CSc1ccc(Cl)c(C(=O)OCC(=O)NCC(C)C)c1
 : ?	-1.8%	-3.1	1.8	7	12%	-10%
CCn1cc(/C=C(\NC(=O)c2ccccc2)C(=O)NCCN2CCOCC2)c2ccccc21
 : ·	2.3%	·	-0.2	0	·	-1.3%
COCCNC(=O)CSc1nc(-c2ccc(C)cc2)nc2c1c(=O)n(C)c(=O)n2C
 : ·	-1.1%	·	0.6	7	·	-2.8%
Cn1c2c(c(=O)n(C)c1=O)C1(C(=O)Nc3ccccc31)C(C#N)=C(N)O2 (stereo not drawn)
 : ·	-1.2%	0.2	0.1	-11	-16%	-0.5%
CN(Cc1ccco1)C(=O)CN1C(=O)NC2(CCCCC2)C1=O
 : 26	1.6%	·	0.0	27	·	0.2%
Cc1ccc(NC(=O)C(C)c2cccc(C(=O)c3ccccc3)c2)cc1 (stereo not drawn)
 : -12	·	2.1	0.9	2	11%	0.6%
COC(=O)c1cc(=O)nc2sc3cc(OC)ccc3n12
 : 23	0.8%	4.4	-0.3	15	-5%	2.9%
CCCCNS(=O)(=O)CCNCCc1ccccc1
 : ·	-0.3%	·	0.0	21	·	-0.3%
COc1ccc(OC)c(C(=O)CSc2nnc(-c3ccc(OC)c(OC)c3)o2)c1
 : -8	·	2.6	·	·	-4%	·
CC(C)C(NC(=O)c1ccccc1F)C(=O)NCc1ccc(F)cc1 (stereo not drawn)
 : 9	-0.9%	1.6	0.1	-7	8%	·
O=C(CCNC(=O)c1ccc(Br)cc1)NNC(=O)c1ccccc1
 : ·	1.4%	·	-0.1	-26	·	0.4%
CC(C)NC(=O)C1(C)CCCN1Cc1csc2ccccc12 (stereo not drawn)
 : ·	0.2%	·	-0.6	·	·	0.5%
Cc1ccc2ccc(C#N)cc2c1O
 : ·	0.7%	·	0.2	-3	·	3.7%
Cc1c(NC(=S)NC(=O)c2ccc(Br)o2)c(=O)n(-c2ccccc2)n1C
 : 0	0.7%	-3.1	0.0	-4	-18%	0.0%
CC1(C)CC(/C=C/c2ccccc2)=Nc2ccccc2N1
 : ·	0.2%	5.2	·	·	-13%	-0.6%
COC(=O)C(CC(C)C)NC(=O)/C=C/c1ccccc1Cl (stereo not drawn)
 : -31	1.7%	4.5	0.9	-7	2%	-5.2%

Continued; it opens with the 2 that closed the last part.
Each structure is followed by: TRPV1 PAM	PINK1 modulator	Menin MLL FP FL	TRPML1 agonist	TRPML1 blocker	Sfp PPTase inh	ClpP mod
CC1(C)CC(/C=C/c2ccccc2)=Nc2ccccc2N1
 : ·	0.2%	5.2	·	·	-13%	-0.6%
COC(=O)C(CC(C)C)NC(=O)/C=C/c1ccccc1Cl (stereo not drawn)
 : -31	1.7%	4.5	0.9	-7	2%	-5.2%
COc1ccc(/C=C(\C#N)c2nc3ccccc3c(=O)[nH]2)cc1OC
 : ·	0.0%	·	-0.2	25	·	0.8%
O=C(c1ccc(N2CCN(C(=O)c3ccccc3)CC2)cc1)c1cccc(F)c1
 : 10	1.0%	1.7	1.5	-2	?	·
COCCCNC(=O)c1ccccc1C(F)(F)F
 : -11	-1.0%	4.9	·	·	11%	0.4%
CC(C)(C)C(=O)/C=C/Nc1ccccc1O
 : -23	4.1%[38.3 µM]	1.4	-0.3	-2	-29%	-1.3%
c1ccc(CCc2nn3c(Cc4ccccc4)nnc3s2)cc1
 : -2	-4.0%[38.3 µM]	-1.2	4.0	7	22µM*	-1.8%
CSCCC(NS(=O)(=O)c1ccccc1F)C(=O)N1CC=C(c2ccccc2)CC1 (stereo not drawn)
 : 0	1.6%	·	0.6	12	-4%	-23%
O=C(c1ccccc1C(F)(F)F)N1CCN(S(=O)(=O)c2ccccc2)CC1
 : 23	-1.9%[38.3 µM]	0.3	0.2	6	10%	0.2%
CCCOC(=O)CSc1nnc(-c2ccccc2Cl)o1
 : 6	0.2%	-1.1	2.0	-2	-3%	-2.7%
CN(c1ccccc1)S(=O)(=O)c1ccc(Cl)c(C(=O)NCC(c2ccco2)N2CCCC2)c1 (stereo not drawn)
 : 14	-2.6%	·	0.6	6	·	-2.0%
CCCCc1ccc(Nc2cc(C)nc(-n3nc(C)cc3C)n2)cc1
 : ·	4.1%	·	0.8	22	·	-17%
CCOc1[nH]n(-c2ccc(Cl)cc2)c(=O)c1C=NCC(=O)OC
 : -1	-1.0%	-0.5	-0.6	6	0%	2.8%
Cc1ccccc1NC(=O)Cn1c([N+](=O)[O-])cnc1C
 : 1	0.9%	6.4	0.0	15	6%	-2.2%
N#Cc1cccc(-c2ccc3ncnc(N4CCNCC4)c3c2)c1
 : ·	-0.1%	-3.1	·	·	-1%	·
CN1/C(=C\C(=O)Nc2ccc(Br)cc2)C(C)(C)c2ccccc21
 : -12	?	2.3	0.6	4	6%	?
O=C(NCCc1c[nH]c2ccccc12)C(=O)NCC1CCCO1 (stereo not drawn)
 : 0	1.7%	-1.0	-0.7	-12	11%	-0.5%
CN1CCN(c2ncc3nc(CCc4ccccc4)c(=O)n(Cc4cccs4)c3n2)CC1
 : ·	1.5%	?	·	·	28µM*	·
CC(C)c1ccc(OCC(O)CN2CCN(c3ccccc3)CC2)cc1 (stereo not drawn)
 : -18	6.8%&0.0%	-0.7	1.3&-0.3	-6&48	-2%	0.6%
Nc1c(-c2cccc(Cl)c2)cnc2c(-c3ccccc3)cnn12
 : -8	4.3%	1.4	0.6	0	16%	·
O=c1c2ccccc2nnn1CSc1nnc(C2COc3ccccc3O2)n1-c1ccccc1 (stereo not drawn)
 : 3	-1.0%	0.3	-0.2	1	1%	1.8%
O=C(NC1CCCCCC1)c1cccc(COCC(F)(F)F)c1
 : -19	-1.0%	1.2	0.4	-5	26%	0.3%

Each structure is followed by: TRPV1 PAM	PINK1 modulator	Menin MLL FP FL	TRPML1 agonist	TRPML1 blocker	Sfp PPTase inh	ClpP mod
CC1(C)SC(=S)N(/N=C/c2ccccc2)C1N(O)C(=O)Nc1ccc([N+](=O)[O-])cc1 (stereo not drawn)
 : -21	32µM*	0.5	-1.0	7	33%[activator]	0.6%
CCOc1ccc(C2N(c3ccc(OC)cc3)C(=O)C3CCCN32)cc1OC (stereo not drawn)
 : -2	0.1%	0.9	0.3	-14	6%	1.9%
Cc1ccc(NS(=O)(=O)c2cccc(C(=O)NNC(=O)c3ccco3)c2)c(C)c1
 : -5	3.6%	·	-0.1	2	·	-3.6%
O=C(NCc1ccc(F)cc1)C(=O)NCC1OCCCN1S(=O)(=O)c1cccs1 (stereo not drawn)
 : 2	-0.4%	2.9	-0.3	-26	4%	-0.1%
CNC[C@H]1Oc2ccc(NC(=O)Cc3cn(C)c4ccccc34)cc2CC(=O)N([C@@H](C)CO)C[C@H]1C
 : ·	2.2%	·	-0.7	-1	·	-1.3%
Cc1onc(-c2c(F)cccc2Cl)c1C(=O)Nc1cccc(S(=O)(=O)NCc2ccco2)c1
 : 10	-0.3%	4.2	-0.5	14	0%	·
COc1cc(Cl)c(C)cc1NC(=O)CSc1ccc(C)cc1
 : -5	4.0%[38.3 µM]	-2.4	1.3	3	-6%	-0.1%
CCN(CC)S(=O)(=O)c1cccc(C(=O)N[C@@H](C)c2nc3ccccc3[nH]2)c1
 : 17	·	1.1	·	·	7%	·
O=C(Nc1ccccc1N1CCOCC1)c1ccc(Cl)c(S(=O)(=O)N2CCCC2)c1
 : -8	0.6%	·	0.5	26	·	0.7%
CC(NC(=O)COC(=O)c1cc(S(=O)(=O)N2CCOCC2)ccc1F)c1ccccc1 (stereo not drawn)
 : ·	2.6%	·	-0.5	-5	·	1.7%
O=C(/C=C/c1ccccc1)c1ccc2c3c(cccc13)CC2
 : 1	-3.5%	4.6	2.0	9	-9%	-1.7%
CCOC(=O)C(=O)NNc1ccc(C)cc1
 : -1	-1.9%	1.7	-1.0	-18	-15%	1.0%
COc1ccc(N(C(=O)Cn2nnc3ccccc32)C(C(=O)NCc2ccccc2)c2ccc(F)cc2)cc1 (stereo not drawn)
 : ·	5.1%	·	1.3	-9	·	1.1%
O=C(NNC(=O)c1ccc(S(=O)(=O)N2CCCCC2)cc1)c1ccc(F)cc1
 : 6	0.1%	-1.4	0.7	-11	6%	·
COc1ccc(CC(=O)Nc2sc3c(c2C(=O)Nc2cccc(Cl)c2)CCCCC3)cc1
 : ·	-2.1%	·	0.2	-3	·	?
CC(=O)NCCc1c[nH]c2ccc(OCC(O)CNC(C)(C)C)cc12 (stereo not drawn)
 : 1	1.7%	1.9	-0.4	20	1%	·
CCc1nnc(NC(=O)CSc2nc(SC)ns2)s1
 : 15	0.7%	-3.0	1.1	-2	-4%	·
COc1ccc(-c2csc(NCCn3c(C)nc4cc(C(F)(F)F)ccc43)n2)cc1
 : ·	6.5%	·	-0.8	1	·	0.8%
Cc1ccccc1C(=O)N1CCC(C(=O)Nc2ccc(S(=O)(=O)N3C(C)CCCC3C)cc2)CC1 (stereo not drawn)
 : ·	1.7%	·	-0.3	-8	·	0.5%
O=S(=O)(NCc1nc2cccnc2n1Cc1ccccc1Cl)c1ccc(F)c(Cl)c1
 : ·	2.4%	·	0.0	-3	·	-3.3%
CS(=O)(=O)Nc1ccc(C2=NN(S(C)(=O)=O)C(c3ccc4c(c3)OCO4)C2)cc1 (stereo not drawn)
 : 6	7.3%	?	0.0	-6	4%	4.6%
